2A Renilla = lowers the Renilla signal of an FMDV 2A StopGo reporter; HEK cells with a luciferase reporter of 2A StopGo recoding; Potency, µM (doses to about 57.5 µM), for inactives: at the top dose signal change, negative = less light; actives 0.32% (n = 120,000); AID 1745857; active means well fitted falling curve with a large enough effect; inconclusive means small, poorly fitted or top-dose-only effect; inactive means no such curve, though single readings can be large or run the other way; also: nearly all actives have a fitted effect of over 55% in size; overnight with compound
2A firefly = lowers the firefly signal of an FMDV 2A StopGo reporter. Potency, µM (doses to about 57.5 µM), without a hit: at the top dose signal change, negative = less light. actives 0.23% (n = 120,000). AID 1745856. HEK cells with a luciferase reporter of 2A StopGo recoding; active = well fitted falling curve with a large enough effect; inconclusive = small, poorly fitted or top-dose-only effect; inactive = no such curve, though single readings can be large or run the other way; also: nearly all actives have a fitted effect of over 60% in size; overnight with compound
Active calls of the source: *; ? = inconclusive; [ ] = dose if it differs, or a comment. % is scaled to controls: 0 for no effect and ±100 for the full control effect; potency is read from the fitted curve at half-maximal effect. Only part of the results is shown. The share of hits here may be higher or lower than overall.

SMILES	2A Renilla	2A firefly
Cc1ccc(C)c(NC(=O)Cn2nnc(C(=O)NCc3ccco3)c2N)c1	30.0%[activator]	14.4%
CC(C(=O)N(C)CC(=O)Nc1ccccc1C(F)(F)F)N1CCN(c2ccccc2Cl)CC1 (configuration not stated)	6.0%	6.7%
COc1ccc(-c2nc(SCC(=O)N3CCCC3c3ccc4c(c3)OCCO4)n[nH]2)cc1 (configuration not stated)	?	?
Cc1nc(CSCC(=O)NCc2cccs2)cs1	5.7%	6.6%
Cc1ccc(CCNC(=O)Cn2ncc3c(=O)oc4ccccc4c32)cc1	-14.4%	-17.0%
COc1ccc(C2CCCN2C(=O)NCCn2ccnc2)cc1 (configuration not stated)	-9.3%	-8.8%
COCCCNC(=O)c1ccc2c(c1)N(Cc1ccccc1F)C(=O)c1ccccc1S2=O (configuration not stated)	5.7%	-3.3%
Cc1nnc(C(=O)Nc2cccc(C(=O)NCc3ccc4c(c3)OCO4)c2)s1	64.1%[activator]	17.9%
Cn1c(Oc2ccc(F)c(F)c2)c(C#N)c(=O)n(C)c1=O	-7.7%	-7.0%
COc1ccc(CCn2c(SCC(N)=O)nc3c2c(=O)n(C)c(=O)n3C)cc1	-7.6%	-0.9%
COCCNc1nc2c(c(=O)n(C)c(=O)n2C)n1Cc1c(Cl)cccc1Cl	5.4%	6.6%
NCc1ccc(Br)cc1C(F)(F)F	-6.2%	3.4%
O=C(NCc1nc2cccnc2n1Cc1ccc(F)cc1)c1ccccc1C(F)(F)F	-7.6%	-18.1%
CCc1cccc(C)c1NS(=O)(=O)c1c(C(=O)N2CCCCCC2)c(C)n(C)c1C	127.6%[activator]	-15.7%
COc1ccc2c(c1)CCCN2C(=O)c1cc2ccc(Cl)cc2nc1C	?	?
CCOc1ccc(-n2c(SCC(=O)Nc3ccc(CC)cc3)nc3c(oc4ccccc43)c2=O)cc1	-14.8%	-17.5%
COc1ccc(-c2nc(C(=O)N3CCN(C(C#N)c4ccc(F)cc4)CC3)cs2)cc1OC (configuration not stated)	-2.2%	7.5%
O=C(NCc1ccc(Cl)cc1)C1CCN(S(=O)(=O)Cc2ccccc2)CC1	-5.8%	-19.2%
COc1ccccc1C(NC(=O)c1nc(-c2ccco2)sc1C)c1nccn1C (configuration not stated)	14.2%	10.6%
CC1(C)CC(=O)c2cc(-c3nc(-c4ccc(Br)cc4)cs3)c(=O)n(-c3ccccc3)c2C1	-11.8%	-16.5%
CCOc1cccc2cc(-c3cc(=O)oc4cc(OC(=O)N5CCOCC5)ccc34)c(=O)oc12	0.9%	-6.7%
COc1cccc(C(c2sc3nc(-c4ccco4)nn3c2O)N2CCN(c3ccccc3F)CC2)c1 (configuration not stated)	50.7%[activator]	-5.5%
COc1ccc(-c2nc(Cn3ncc4ccccc4c3=O)co2)cc1	-15.0%	-15.7%
CSc1nc(=O)c2c(n1C)NC(=O)CC2c1ccc(C)cc1C (configuration not stated)	-6.1%	10.6%
O=C(Nc1ccc(F)c(F)c1)c1cc2cc(Br)ccc2oc1=O	-0.4%	10.2%
CC(C)Oc1ccc(CNC(=O)Cn2c(=O)nc3n2C(=O)N(c2ccccc2)C3)cc1	-5.7%	10.9%
C=C(C)C1CC=C(C)/C(=N/O)C1 (configuration not stated)	16.2%	11.4%
Cc1ccc(C)c(Nc2nnc(-n3nc(C)cc3C)c3ccccc23)c1	16.8%	23.9%
Cc1ccc(OCCCn2c(CCNC(=O)C3CCCCC3)nc3ccccc32)c(C)c1	-3.0%	-6.3%
O=S(=O)(c1ccc(F)cc1)N(CC(O)Cn1c2ccccc2c2ccccc21)c1ccccc1 (configuration not stated)	51.2%[activator]	-24.0%
CCOC(=O)c1ccc(NC(=O)C(=O)NCc2ccco2)cc1	-5.0%	1.0%
COc1ccc(S(=O)(=O)N(CCc2ccccc2)CC(=O)Nc2cccc(OC)c2)cc1	103.6%[activator]	-15.6%
COc1ccc(CNC(=O)COC(=O)c2cc(Cl)c[nH]2)cc1	-1.7%	1.8%
O=C(COC(=O)c1cc(=O)c2ccccc2o1)c1ccc(Cl)c(Cl)c1	-5.6%	-1.1%
Cc1ccc(-c2nn(C)c(=O)c3ccccc23)cc1S(=O)(=O)NCCCO	225.5%[activator]	20.1%
COc1cccc(C2CC(=O)Oc3c2c(=O)[nH]c2ccccc32)c1 (configuration not stated)	-12.2%	-1.2%
O=C(CCCCCC(=O)N/N=C/c1cc2c(cc1[N+](=O)[O-])OCO2)N/N=C/c1cc2c(cc1[N+](=O)[O-])OCO2	-0.1%	-0.3%
CC(=O)c1ccc(N2CCN(C(=O)CCc3ncc(-c4ccc(F)cc4)o3)CC2)c(F)c1	-12.1%	28.4%
O=C(Cn1c(=O)nc(-c2ccccc2)c2ccccc21)NCc1ccccc1Cl	-11.0%	28.0%
Cc1ccc(Nc2cc(C)c(C#N)c3nc4ccccc4n23)c(C)c1	-1.1%	1.5%
O=C(c1ccccc1Cl)N1CCC(CCc2ccc(O)cc2)CC1	-10.8%	-25.6%
Cc1cccc(NC(=O)Nc2ccc(F)cc2)n1	25.2%	287.7%[activator]
Cc1ccc(C(=O)NCC(c2cccs2)S(=O)(=O)c2ccccc2)cc1C (configuration not stated)	31.1%[activator]	-10.4%
CCc1ccc(N2CC(c3nnc(NC(=O)Cc4ccc(F)cc4)s3)CC2=O)cc1 (configuration not stated)	-4.9%	-6.7%
O=C(O)c1ccc(CNCc2ccccc2Cl)cc1	9.4%	0.0%
COc1cccc(NC(=O)C2CCC(CNS(=O)(=O)c3ccc4c(c3)CC(C)N4C(C)=O)CC2)c1 (configuration not stated)	65.1%[activator]	-22.5%
Cc1cc(=O)oc2cc(OCC(=O)Oc3ccccc3)ccc12	3.6%	23.1%
Cc1ccc(C(=O)c2ccccc2C(=O)OCc2ccc(C#N)cc2)cc1	15.7%	8.5%
CC(C)OC(=O)/C(C#N)=C/c1ccc(-c2ccc(Cl)c(Cl)c2)o1	-13.3%	-23.1%
Cc1ccccc1Cn1cc(NC(=O)c2cc(-c3ccc(Cl)cc3)on2)cn1	-4.2%	5.4%

Next part (3 carried over from the part before).
SMILES	2A Renilla	2A firefly
Cc1ccc(C(=O)c2ccccc2C(=O)OCc2ccc(C#N)cc2)cc1	15.7%	8.5%
CC(C)OC(=O)/C(C#N)=C/c1ccc(-c2ccc(Cl)c(Cl)c2)o1	-13.3%	-23.1%
Cc1ccccc1Cn1cc(NC(=O)c2cc(-c3ccc(Cl)cc3)on2)cn1	-4.2%	5.4%
Cc1ccc2c(=O)cc(C(=O)Nc3ccc(S(=O)(=O)N(C)Cc4ccccc4)cc3)oc2c1	23.2%	34.9%[activator]
COc1cc(OC)c(OC)cc1CN1CCN(C(=O)COc2ccc3ccccc3c2)CC1	-23.7%	-14.6%
Cc1ccc(C)c(N2CCN(S(=O)(=O)c3ccc(C(=O)N(C)C)s3)CC2)c1	?	?
O=C(CCC1NC(=O)N(CCc2c[nH]c3ccc(F)cc23)C1=O)Nc1ccccc1 (configuration not stated)	-12.5%	-4.4%
CC(=O)N1CCc2c(sc3c2c(=O)n(-c2ccccc2)c(=O)n3CC(=O)c2ccc(F)cc2)C1	0.4%	-13.6%
O=C(CSc1nc2cc(S(=O)(=O)N3CCCCC3)ccc2o1)N1CCc2ccccc21	0.6%	-1.6%
COc1cc(C#N)ccc1OCc1cc(C)ccc1C	6.3%	54.6%[activator]
Cc1cc(=O)n(Cc2ccccc2)c2c1c(C)nn2C	-18.1%	-5.9%
COc1ccc(-c2cc(=O)n3[nH]c(C)nc3n2)cc1	12.2%	90.5%[activator]
CC(C)C(NC(=O)Cc1ccccc1)C(=O)OCc1ccc(C(N)=O)cc1 (configuration not stated)	-3.2%	-11.8%
O=C(Nc1ccc(CC(=O)N2CCOCC2)cc1)c1cccc(Cl)c1	3.1%	69.1%[activator]
CCC1CCCCN1S(=O)(=O)c1ccc(NC(=O)c2cc(=O)c3ccccc3o2)cc1 (configuration not stated)	-3.1%	-9.3%
O=C(CCc1nc2ccccc2o1)NC1CCCCCC1	5.8%	13.7%
CCCCCN1C(C(=O)c2ccccc2)=C(OC(=O)CC)c2ccccc2S1(=O)=O	-14.5%	?
CC1(C)COCCN1C(=O)c1ccc(OCC2CCCO2)cc1 (configuration not stated)	-8.7%	0.0%
Fc1ccccc1C(NCCc1ccc(Cl)cc1)c1nnc(-c2ccccc2)o1 (configuration not stated)	72.8%[activator]	1.4%
COC(=O)c1ccc(C2C(c3ccccc3)=C(O)C(=O)N2Cc2ccc(F)cc2)cc1 (configuration not stated)	15.7%	1.5%
Cc1ccccc1C1CCCN1S(=O)(=O)c1cccc2nsnc12 (configuration not stated)	-4.8%	-6.2%
Nc1ccc(C(=O)c2ccncc2)cc1	-1.9%	6.6%
CCN(CC)c1cc2c(cc1F)c(=O)c(S(=O)(=O)c1ccc(OC)cc1)cn2CC	-8.6%	-11.2%
Cc1cnccc1C(=O)O	2.1%	?
Cc1ccc(S(=O)(=O)Nc2c(NCC3CCCCC3)c3ccccc3oc2=O)cc1	4.0%	-2.1%
CCOc1ccc(NC(=O)c2cnc3sc(N4CCOCC4)nn3c2=O)cc1	-15.4%	5.6%
Cc1n[nH]c(C)c1S(=O)(=O)N1CCCC(C(=O)Nc2ccc(Cl)cc2)C1 (configuration not stated)	-23.9%	?
O=C(NCc1ccccc1)c1cccc(NC(=O)N2CCSc3ncccc32)c1	8.9%	-1.3%
O=C(O)CCC(=O)Nc1ccc2[nH]cc(C(C(=O)O)N3CCN(c4ccccc4)CC3)c2c1 (configuration not stated)	-19.3%	-19.4%
NCCCOCC(F)(F)F	0.6%	-8.0%
CCN(Cc1ccccc1)C(=O)CCS(=O)(=O)c1ccc2c(c1)oc(=O)n2C	-12.9%	-13.8%
COCCn1c(C(=O)NCc2ccncc2)nc2ccccc2c1=O	-12.0%	-10.2%
Cc1nc2ccccc2c(=O)n1-c1ccc(NC(=O)c2ccc([N+](=O)[O-])cc2)cc1	2.82µM*	?
CC(C)c1ccc(Cc2cnc(NC(=O)C3=Cc4ccccc4OC3)s2)cc1	-0.5%	15.6%
CNC(=O)c1cccc(NC(=O)c2cnc3ccccc3n2)c1	10.2%	21.3%
CCOc1ccccc1NC(=O)C1CCN(S(=O)(=O)c2c(C)noc2/C=C/c2ccc(C)cc2)CC1	-14.8%	-16.7%
CCc1ccccc1Nc1nc2ccccc2n2cnnc12	-6.0%	6.6%
O=C(NCCc1ccc(Cl)cc1)C(=O)NCC(c1ccco1)S(=O)(=O)c1cccs1 (configuration not stated)	0.9%	-7.0%
O=C(c1ccccc1)N1c2ncnn2C2(CCCCC2)[C@@H]2CCCC[C@@H]21	19.2%	-23.5%
CC(C)Sc1ccc2nn(CC(=O)Nc3ccc(F)cc3Cl)c(=O)n2n1	-14.3%	-9.9%
C[C@H](NC(=O)C(=O)Nc1cccc(C(=O)c2nccn2C)c1)c1ccccc1	12.9%	29.7%
CC(C)[N+](C)(CCOC(=O)C1c2ccccc2Oc2ccccc21)C(C)C	-16.6%	-12.8%[11.5 µM]
COc1ccc(NS(=O)(=O)c2ccc(-c3cnc(C)o3)cc2)c(OC)c1	-49.4%	?
COc1ccc(C2CC(=O)Nc3c2c(=O)nc2c(C)cccn32)cc1 (configuration not stated)	-8.8%	2.2%
Cc1nc(CNC(=O)c2ccccc2C)cs1	3.1%	18.7%
Cc1ccc(NC2=C(Cl)C(=O)OC2OC(C)C)c(C)c1 (configuration not stated)	19.6%	21.7%
O=S(=O)(NCC1(c2ccccc2)CC1)c1ccccc1F	50.3%[activator]	1.4%
COC(=O)CC1Oc2ccccc2-n2cc(-c3ccccc3)nc21 (configuration not stated)	20.8%	0.0%
Cc1ccc(NC(=O)c2nc3ccccc3nc2N2CCOCC2)cc1F	20.9%	14.7%
Cc1cccc(-c2cc(NC(=O)C(C)(C)C)n(-c3ccccc3)n2)c1	14.8%	48.9%[activator]
COc1ccc(CNC(=O)c2ccc(NC(=O)N3CCSc4ncccc43)cc2)c(OC)c1	-8.6%	-14.1%
COc1ccc(-c2ccc(NS(=O)(=O)c3cc(C)c(C)cc3C)cc2)nn1	331.0%[activator]	-0.5%
CCOC(=O)C1=C(N)Oc2c(c(=O)oc3ccccc23)C12C(=O)Nc1ccc(F)cc12 (configuration not stated)	4.4%	-3.5%

Four entries from above, with bars between the fields.
smiles | 2A Renilla | 2A firefly
Cc1cccc(-c2cc(NC(=O)C(C)(C)C)n(-c3ccccc3)n2)c1 | 14.8% | 48.9%[activator]
CC(C)C(NC(=O)Cc1ccccc1)C(=O)OCc1ccc(C(N)=O)cc1 (configuration not stated) | -3.2% | -11.8%
O=S(=O)(c1ccc(F)cc1)N(CC(O)Cn1c2ccccc2c2ccccc21)c1ccccc1 (configuration not stated) | 51.2%[activator] | -24.0%
COc1cccc(NC(=O)C2CCC(CNS(=O)(=O)c3ccc4c(c3)CC(C)N4C(C)=O)CC2)c1 (configuration not stated) | 65.1%[activator] | -22.5%

Following part:
SMILES	2A Renilla	2A firefly
COc1ccccc1N1CCN(C(CNC(=O)C(=O)NCCCN(C)C)c2cccnc2)CC1 (configuration not stated)	-12.7%	-17.8%
Cc1ccc2c(=O)cc(C(=O)Nc3sc4c(c3C(=O)NCC3CCCO3)CCCC4)oc2c1C (configuration not stated)	-11.6%	-16.6%
Cc1oc2ccc(O)c(CN(C)Cc3ccccc3)c2c1C(=O)Nc1cccc(C(F)(F)F)c1	-7.4%	-19.3%
CCCCC(=O)O[C@]1(C(=O)CO)CC[C@H]2[C@@H]3CCC4=CC(=O)CC[C@]4(C)[C@H]3[C@@H](O)C[C@@]21C	9.2%	-9.5%
COc1cc(C(=O)OCC(=O)NC(=O)NCc2ccco2)cc(OC)c1C	4.1%	4.9%
NC(=O)CN1CCC(NC(=O)c2cccc(Cl)c2)CC1	6.9%	-0.4%

Assay outcomes: PubChem BioAssay, National Center for Advancing Translational Sciences (NCATS)
